Screening results as filed in PubChem BioAssay.
HCMV NEC inh – inhibitors of HCMV UL50-UL53 interaction, biochemical, HTRF; normalized percent inhibition; inhibition, % (test concentration not listed); 190,000 tested, 0.15% active; AID 1918969, 2023;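 active = both replicates at 50% or more, plus weaker picks with an unusually low signal ratio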;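 note: stock transfer was 100 nL into about 20 µL; 0% = negative control wells and 100% = wells with untagged competitor protein; inactives centre near -12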
GIV Gai3 FP – inhibitors of GIV peptide binding to Galpha-i3, primary screen, biochemical, fluorescence polarization, FITC-GIV GBA peptide, rat Galphai3. AID 1224905, 2016. 90 min; stronger effect = lower value; scaled: aluminum fluoride 0%, vehicle 100%. 210,000 tested, 0.42% active. percent of control (FP), % (test concentration not listed);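 active = replicate mean at 85% of control or lower, very high polarization wells dropped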;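 note: wells of about 15 µL received 100 nL stock; the first replicate is given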
Target sequence (P08753 whole entry, looked up): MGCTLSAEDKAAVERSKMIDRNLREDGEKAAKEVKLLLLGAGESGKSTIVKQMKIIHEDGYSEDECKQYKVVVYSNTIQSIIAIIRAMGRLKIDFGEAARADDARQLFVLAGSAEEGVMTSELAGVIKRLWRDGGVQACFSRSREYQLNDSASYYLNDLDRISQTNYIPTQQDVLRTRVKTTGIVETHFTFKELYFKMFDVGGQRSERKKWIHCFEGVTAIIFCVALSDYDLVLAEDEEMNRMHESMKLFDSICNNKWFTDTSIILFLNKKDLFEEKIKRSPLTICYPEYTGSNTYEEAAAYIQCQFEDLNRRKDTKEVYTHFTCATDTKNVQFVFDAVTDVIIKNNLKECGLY
Sa growth 42C – S. aureus growth inhibition at 42 and 30 °C, primary screen, LtaS inhibitor project, RN4220, two temperatures | OD600, 20 h, 42 °C; stronger effect = lower value | relative growth, % (concentration not given with the values) | 170,000 tested, 0.53% active;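 active = growth at 42 °C up to 50% and 20 or more points under that at 30 °C, or under 10% at both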;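 note: 300 nL library stock went into each well; scaled to the means of positive and negative controls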
Sa growth 42C second temp – also measured in Sa growth 42C; calls as there; relative growth, %; measured here: growth at 30 °C;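 optical density after 20 h as mean of two plates; 100% = untreated growth and lower means inhibition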
* = called active by the depositor; x = no result given; & = joins results of further samples.

SMILES	HCMV NEC inh	GIV Gai3 FP	Sa growth 42C	Sa growth 42C second temp
CCCCOc1ccc(NC(=O)CS(=O)CC(=O)Nc2ccc(OC)cc2)cc1 (centres undefined)	-22	103	90	84
O=C(NCc1ccc(Cl)cc1)c1cc2c(s1)-c1ccccc1SC2	-26	101	101	80
COC(=O)C1C(=O)NC(SCC(=O)NCc2ccccc2)=C(C#N)C1c1ccccc1F (centres undefined)	x	95	97	73
CN1C(=O)/C(=C\c2ccncc2)SC1=S	x	107	118	80
CCC12CC3CC(NC(C)=O)(C1)CC(C(=O)O)(C3)C2 (centres undefined)	-24	98	94	83
CC1CCN(S(=O)(=O)c2ccc3c(ccn3CCC(=O)NCCc3ccccc3)c2)CC1	0	97	x	x
Cc1ccc(SC(C)C(=O)Nc2ccccc2C#N)cc1C (centres undefined)	-5	x	98	101
O=C(NCCCO)c1ccc2[nH]c3ccccc3c2c1	-7	100	116	98
COc1ccc(Br)cc1CNC(=O)c1ccc(N2C(=O)Cn3c(cc4sccc43)C2=O)cc1	-22&-24	99&109	90	84
COc1cccc2cc(C(=O)Nc3ccccc3-c3nnn(CC(=O)NC(C)(C)C)n3)c(=O)oc12	-2	x	113	89
CN(CCO)C12CC3CC(CC(C3)C1)C2	-11	102	104	107
CCNC(=O)C1Cc2ccccc2N1C(=O)CC (centres undefined)	5	107	x	x
Nc1ccnn1Cc1ccco1	7	106	98	83
O=C(NCc1ccc2c(c1)OCO2)C1CCN(c2ccc(-c3cccc(F)c3)nn2)CC1	-18	100	x	x
CCOc1ccccc1N(C)C(=O)C1CCCN(c2ncnc3c2nc2n3CCCCC2)C1 (centres undefined)	x	105	128	96
O=C(NCc1ccccn1)c1cccc(C(=O)NCc2ccccn2)n1	-6	102	x	x
CCOC(=O)c1onc(-c2ccc(Br)cc2)c1N	-17	99	x	x
Cc1cccc(N2CCN(C(=O)C3CCN(S(=O)(=O)c4cn(C)c(C)n4)CC3)CC2)c1C	-15	103	x	x
CCOC(=O)c1ccc2c(c1)N(Cc1ccccc1)C(=O)c1ccccc1S2	x	100	126	90
O=C(N/N=C/C=C/c1ccco1)c1cccs1	-28	113	64	48
Cc1cc(O)c2/c(=N\N)c(-c3csc(C)n3)coc2c1	-10	x	103	94
CCOC(=O)c1cc(-c2ccnn2S(=O)(=O)c2ccc(C)cc2)on1	x	100	108	88
O=C(/C=C/c1ccco1)N1CCN(Cc2nc3sc4c(c3c(=O)[nH]2)CCCC4)CC1	-44	x	65	91
CC(C)Cn1c(C2CCCO2)nc2ccccc21 (centres undefined)	-23	107	x	x
CC(=O)c1cccc(NC(=O)Nc2nnc(N3CCCC3)s2)c1	-1	110	87	89

Remaining list, next part:
SMILES	HCMV NEC inh	GIV Gai3 FP	Sa growth 42C	Sa growth 42C second temp
CCCNS(=O)(=O)c1ccc2c(c1)oc(=O)n2C	x	108	119	83
CCN(CC)CCCNC(=O)c1ccc(Nc2ccnc(-c3cccc(C)c3)n2)cc1	-12	102	x	x
C=CCNC(=O)C1CC2CCCC(C1)C2=O (centres undefined)	-28	x	98	90
COc1cccc(Nc2cc(-c3ccccc3)nc(C)n2)c1	-44	104	90	56
COc1ccc(-c2noc(CN3CCC(C)CC3)n2)cc1OC	-19	104	x	x
COc1ccccc1N1CCN(c2ccc(=O)n(CC(=O)NCCN3CCCC3)n2)CC1	-22	108	x	x
CCOc1cc(C2C3=C(CC(C)(C)CC3=O)N(C)C3=C2C(=O)CC(C)(C)C3)ccc1O	-28	101	90	93
COc1ccc(OCC(O)CNC(C)c2ccccc2)cc1 (centres undefined)	10	x	114	102
COc1cccc(C(=O)Nc2ccccc2SCc2cc(=O)n3c(C)csc3n2)c1	-23	105	95	73
Cc1nc(N2CCOCC2)cc(N2CCN(S(C)(=O)=O)CC2)n1	-27	97	x	x
CCOCCCn1c(SCc2nc3sc(C(=O)O)c(C)c3c(=O)[nH]2)nnc1-c1ccc(Cl)cc1	-9	x	103	100
COCc1cc(=O)oc2cc(OC(C)=O)c(Cl)cc12	10	109	100	97
Cn1c(NCc2cccc(Cl)c2)nc2ccccc21	1	99	110	64
CSc1nc2c(c(-c3cccs3)c1C#N)CCCC2	-2	92	96	109
COc1ccc(-n2c(C)cc(CNC(=O)NC3CCCC3)c2C)cc1	-34	114	97	80
CSc1nnc(N2C(=O)CC(c3ccccc3)C3=C2CCCC3=O)s1 (centres undefined)	-3	x	110	90
N#CC1=C(N=Cc2ccccc2O)CCC1	-21	105	91	80
COc1cc2c(cc1OC)CN(CC(=O)Nc1ccccc1C(=O)NC1CC1)CC2	16	x	112	105
O=c1c2ccccc2ncn1Cc1noc(C2CCC2)n1	-24	108	x	x
CC(C)n1ncc2c1N=C(c1ccccc1)N(C1CC1)C21CCCCC1	-20	x	82	92
CCOc1ccc(C(=O)Nc2nnc(SCc3cc(=O)c4cc(C)ccc4[nH]3)s2)cc1	x	105	90	89
O=C(CCC(=O)N1CC=C(c2c[nH]c3ccccc23)CC1)NCc1cccc(Cl)c1	-6	106	x	x
Cc1cccc(NC(c2ccccn2)c2c(NC(=O)c3ccccc3)sc3c2CCCC3)n1 (centres undefined)	-33	109	x	x
CCC(C(=O)Nc1ccc(F)cc1)n1nc(-c2ccc(C)cc2)c2c(c1=O)CCCC2 (centres undefined)	18	99	x	x
Cc1ccc(C)c(CN2C(=O)c3ccccc3S(=O)c3ccc(C(=O)N4CCCCC4)cc32)c1 (centres undefined)	-22	100	93	72

Quoted at random: 2 entries already listed.
SMILES	HCMV NEC inh	GIV Gai3 FP	Sa growth 42C	Sa growth 42C second temp
COc1ccccc1N1CCN(c2ccc(=O)n(CC(=O)NCCN3CCCC3)n2)CC1	-22	108	x	x
Cn1c(NCc2cccc(Cl)c2)nc2ccccc21	1	99	110	64

New compounds follow.
SMILES	HCMV NEC inh	GIV Gai3 FP	Sa growth 42C	Sa growth 42C second temp
CCN1CCN(c2cc(C)c3cc(NC(=O)c4ccccc4F)ccc3n2)CC1	-13	102	98	82
Fc1ccc(-c2cc3c(N4CCN(Cc5ccccc5)CC4)nccn3n2)cc1	-15	106	x	x
CC(C)NS(=O)(=O)c1cccs1	-21	107	79	89
CCc1ccc(NC(=O)CCc2nnc3ccc(N(CC)CC)nn23)cc1	-14	101	115	82
O=C(Nc1ccc(C(F)(F)F)cc1)c1csc(-c2ccncc2)n1	-5	101	x	x
O=C(O)C(c1ccc(F)cc1)N1Cc2ccccc2C1=O (centres undefined)	-25	103	81	90
CCC(=O)N1CCc2cc(S(=O)(=O)NCCC(=O)Nc3ccc(N(CC)CC)cc3C)ccc21	-22	103	107	83
CCCN1C(=O)c2c(C(=O)Nc3ccc(Br)cc3F)ncn2CC1(C)C(=O)NC1CCCC1 (centres undefined)	-26	107	x	x
Clc1ccc(CSc2nnc([C@@H]3CCCN3)o2)cc1	5&-8	107&102	66	92
CCCCn1nnc(NC(=O)CC23CC4CC(CC(C4)C2)C3)n1	-3	104	106	102
CC(=O)Nc1ccc(-c2nc(-c3ccccc3)c3cc(NC(C)=O)ccc3n2)cc1	-18	105	x	x
CCOc1ccccc1N1CC(c2nc3ccccc3n2CCCOc2c(C)cccc2C)CC1=O (centres undefined)	x	103	72	38
CCOC(=O)N1CCC(NC(=O)c2ccc3c(c2)N(Cc2ccc(Cl)cc2)C(=O)c2ccccc2S3=O)CC1 (centres undefined)	-12	104	106	86
CCOC(=O)c1cn[nH]c1S(=O)(=O)N1CCCC1	-23	103	x	x
O=C(Oc1ccc(-c2ccccc2)cc1)c1cccs1	x	101	104	102
O=C(NC1CCSC1=O)C1CCCCC1 (centres undefined)	5	100	105	76
C=CCNC(=O)C(c1ccccc1)c1ccccc1	5	x	135	107
O=C(C1CCN(S(=O)(=O)c2cccnc2)CC1)N1CCN(C(c2ccccc2)c2ccc(Cl)cc2)CC1 (centres undefined)	-33	103	x	x
Cc1ccc2[nH]cc(CCNC(=O)c3ccc(Cn4c(=O)c(C)nc5ccccc54)cc3)c2c1	-35	111	x	x
NS(=O)(=O)c1ccc(CCNC(=O)Cn2c(=O)c3cccn3c3cccnc32)cc1	21	105	x	x
Cc1cc2c(n1-c1ccc(C(=O)NCC3CCCO3)cc1)CCC(C)C2 (centres undefined)	x	108	96	77
CCOC(=O)C1CCC(CNC(=O)N2CCSc3ncccc32)CC1 (centres undefined)	-31	106	99	91
O=C(OC1CCCCC1)C1CCN(S(=O)(=O)c2cccc3nsnc23)CC1	-67	x	90	95
O=C(NCc1cc(=O)n2nc(-c3ccccc3)sc2n1)Nc1ccccc1	-25	101	x	x
Cc1c(C(=O)N2CCC(C#N)CC2)sc2ncnc(N3CCN(c4ccccc4)CC3)c12	-11	100	x	x

The listing continues:
SMILES	HCMV NEC inh	GIV Gai3 FP	Sa growth 42C	Sa growth 42C second temp
CCOc1ccc(C(=O)Nc2cc(C)nn2-c2ncnc3c2cnn3-c2ccccc2)cc1OCC	-38	100	x	x
CCn1c(C)nc2cc(S(=O)(=O)N3CCOCC3)ccc21	x	111	98	101
O=C(CCn1c(=O)[nH]c2ccccc2c1=O)N1CCCCC1	x	105	101	92
CCN(c1ncnc2c1oc1ccccc12)C1CCCCC1	18	x	109	95
CC(C)CSc1nsc2nc(=O)c(C=C3C=CC(=O)C=C3)c(N)n12	-23	129	93	47
Cn1c(NNC(=O)C(C)(C)Oc2ccc(Cl)cc2)cc(=O)n(C)c1=O	-12	101	102	88
CCCn1nc(C(=O)N2CCN(CC)CC2)c2ccccc2c1=O	-2	x	107	101
COc1ccccc1-c1cc(C(F)(F)F)nc(S(=O)(=O)CCCC(=O)N2CCCCC2C)n1 (centres undefined)	x	101	86	67
Cn1nnnc1SCCCNCc1ccc(-c2cccc(Cl)c2)o1	-15	110	90	87
CCOC(=O)c1c(C)[nH]c(NC(=O)Nc2ccccc2Br)c1C	-12	102	92	71

An excerpt from above in order of length of the SMILES, low to high:
SMILES	HCMV NEC inh	GIV Gai3 FP	Sa growth 42C	Sa growth 42C second temp
O=C(NC1CCSC1=O)C1CCCCC1 (centres undefined)	5	100	105	76
C=CCNC(=O)C(c1ccccc1)c1ccccc1	5	x	135	107
O=C(Oc1ccc(-c2ccccc2)cc1)c1cccs1	x	101	104	102
Cn1nnnc1SCCCNCc1ccc(-c2cccc(Cl)c2)o1	-15	110	90	87
CCn1c(C)nc2cc(S(=O)(=O)N3CCOCC3)ccc21	x	111	98	101
CCCn1nc(C(=O)N2CCN(CC)CC2)c2ccccc2c1=O	-2	x	107	101
CCOC(=O)C1CCC(CNC(=O)N2CCSc3ncccc32)CC1 (centres undefined)	-31	106	99	91
CCOC(=O)c1c(C)[nH]c(NC(=O)Nc2ccccc2Br)c1C	-12	102	92	71
O=C(NCc1cc(=O)n2nc(-c3ccccc3)sc2n1)Nc1ccccc1	-25	101	x	x
CC(C)CSc1nsc2nc(=O)c(C=C3C=CC(=O)C=C3)c(N)n12	-23	129	93	47
O=C(OC1CCCCC1)C1CCN(S(=O)(=O)c2cccc3nsnc23)CC1	-67	x	90	95
Cn1c(NNC(=O)C(C)(C)Oc2ccc(Cl)cc2)cc(=O)n(C)c1=O	-12	101	102	88
NS(=O)(=O)c1ccc(CCNC(=O)Cn2c(=O)c3cccn3c3cccnc32)cc1	21	105	x	x
Cc1c(C(=O)N2CCC(C#N)CC2)sc2ncnc(N3CCN(c4ccccc4)CC3)c12	-11	100	x	x
CCOc1ccc(C(=O)Nc2cc(C)nn2-c2ncnc3c2cnn3-c2ccccc2)cc1OCC	-38	100	x	x
COc1ccccc1-c1cc(C(F)(F)F)nc(S(=O)(=O)CCCC(=O)N2CCCCC2C)n1 (centres undefined)	x	101	86	67
Cc1ccc2[nH]cc(CCNC(=O)c3ccc(Cn4c(=O)c(C)nc5ccccc54)cc3)c2c1	-35	111	x	x
O=C(C1CCN(S(=O)(=O)c2cccnc2)CC1)N1CCN(C(c2ccccc2)c2ccc(Cl)cc2)CC1 (centres undefined)	-33	103	x	x

Rewritten with values under each structure: entries from further up.
Below each compound – HCMV NEC inh	GIV Gai3 FP	Sa growth 42C	Sa growth 42C second temp
O=C(NCc1ccc(Cl)cc1)c1cc2c(s1)-c1ccccc1SC2
  -26	101	101	80
CCN(c1ncnc2c1oc1ccccc12)C1CCCCC1
  18	x	109	95
